# FGF22 binding: binders of human FGF22 protein, primary screen, FGF22 synaptogenesis inhibitor project, biophysical, thermal shift, single point; Fibroblast growth factor 22 (Homo sapiens), Q9HCT0; recombinant FGF22 thermal shift, SYPRO orange fluorescence; percent of sucrose octasulfate shift, DMSO zero; calls only at 9.99 µM; actives 1.5% (n = 340,000); AID 651658, 2012;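 active = melting point raised past a set limit in the mean and every replicate; three in four hits are not shown here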
# Target sequence (Q9HCT0 whole entry, looked up): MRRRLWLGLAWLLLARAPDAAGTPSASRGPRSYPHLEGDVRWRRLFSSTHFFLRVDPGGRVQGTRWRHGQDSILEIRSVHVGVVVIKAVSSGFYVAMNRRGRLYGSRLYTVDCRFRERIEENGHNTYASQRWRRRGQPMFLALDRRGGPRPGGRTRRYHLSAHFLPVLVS
# Calls only; i = inactive; + = active, no number. Some of the compounds tested; rates above refer to the full screens.
SMILES,FGF22 binding
COCC(=O)N(C)C[C@H]1Oc2ncc(C3=CCCC3)cc2C(=O)N([C@@H](C)CO)C[C@@H]1C,i
CO[C@H]1CN(C)C(=O)c2ccc(NC(=O)CC(F)(F)F)cc2OC[C@H](C)N(C(=O)c2ccccc2F)C[C@H]1C,i
Nc1[nH]c(C(=O)c2ccccc2)c(-c2cccc3ccccc23)c1C(=O)c1ccc(Br)cc1,i
N#C[C@H]1[C@H](c2ccccc2-c2cccc(F)c2)[C@H](CO)N1C(=O)CN1CCOCC1,i
CO[C@@H]1CN(C)C(=O)c2cc(NS(=O)(=O)CC(F)(F)F)ccc2OC[C@H](C)N(C(=O)NC(C)C)C[C@H]1C,i
C[C@H]1CCCCO[C@@H](CN(C)C(=O)CCC(F)(F)F)[C@@H](C)CN([C@@H](C)CO)C(=O)c2cc(NC(=O)NC3CCCCC3)ccc2O1,i
C[C@@H]1CN([C@@H](C)CO)C(=O)c2c(c3ccccc3n2C)-c2ccccc2CO[C@H]1CN(C)Cc1cccc(C(=O)Nc2ccccc2N)c1,i
C[C@@H]1CN([C@H](C)CO)C(=O)c2cc(NC(=O)CCC(F)(F)F)ccc2O[C@@H]1CN(C)C(=O)Nc1cccc2ccccc12,i
C[C@@H]1CN([C@@H](C)CO)C(=O)Cc2cc(N(C)C)ccc2O[C@H]1CN(C)C(=O)NC1CCCCC1,i
CC(=O)N1CC2(C1)[C@H](c1ccc(-c3cccc(F)c3)cc1)[C@@H](CO)N2CC1CCOCC1,i
CCNC(=O)C[C@@H]1CC[C@@H](NC(=O)C2CC2)[C@H](CO)O1,i
CO[C@H]1CN(C)C(=O)c2cc(NC(=O)NC(C)C)ccc2OC[C@H](C)N(Cc2ccccc2)C[C@@H]1C,i
C[C@H]1CN([C@@H](C)CO)C(=O)Cc2cc(NC(=O)Cc3ccccc3)ccc2O[C@@H]1CN(C)C(=O)Nc1ccccc1,i
COc1ccccc1-c1ccc2c(c1)[C@@H]1[C@@H](CCN1S(=O)(=O)c1cn(C)cn1)[C@@H](CO)N2,i
C[C@H](CO)N1C[C@H](C)[C@@H](CN(C)CC2CCOCC2)Oc2ncc(C#Cc3ccncc3)cc2C1=O,i
C[C@@H]1CCCCO[C@H](CN(C)Cc2ccccc2)[C@H](C)CN([C@@H](C)CO)C(=O)c2cc(NC(=O)Nc3cccc4ccccc34)ccc2O1,i
CCCNC(=O)Nc1ccc2c(c1)C(=O)N(C)C[C@@H](OC)[C@@H](C)CN(Cc1cccnc1)[C@H](C)CO2,i
COCC(=O)N1[C@@H](C#N)[C@@H](c2ccccc2-c2cccc(OC)c2)[C@@H]1CO,i
O=C(C[C@H]1CC[C@@H]2[C@H](COC[C@@H](O)CN2Cc2ccc(Cl)cc2)O1)Nc1nccs1,i
CC(C)NC(=O)N(C)C[C@H]1Oc2ncc(C#CCc3ccccc3)cc2C(=O)N([C@H](C)CO)C[C@H]1C,i
COCC(=O)Nc1ccc2c(c1)C(=O)N(C)C[C@H](OC)[C@H](C)CN(Cc1cccnc1)[C@H](C)CO2,i
C[C@H]1CN([C@@H](C)CO)C(=O)Cc2cc(NS(C)(=O)=O)ccc2O[C@@H]1CN(C)Cc1ccc(C(=O)O)cc1,i
C[C@@H]1CN([C@@H](C)CO)C(=O)c2cc(-c3ccccc3F)cnc2O[C@@H]1CN(C)C(=O)CN(C)C,i
[N-]=[N+]=NCc1ccccc1C[C@@]1(C(=O)N2CCOCC2)N=C(c2ccc(OCCCO)cc2)O[C@@H]1c1ccccc1,i
O=C1CN(Cc2ccccc2)C[C@H]2[C@@H](c3ccc(Br)cc3)[C@@H](CO)N12,i
CC(=O)N(C)C[C@H]1Oc2ncc(C#Cc3cccc(F)c3)cc2C(=O)N([C@@H](C)CO)C[C@@H]1C,i
N[C@H]1CC[C@@H](CCn2cc(-c3ccccn3)nn2)O[C@H]1CO,i
CN1C(=O)c2cc(NC(=O)NC3CCCC3)ccc2OC[C@H]2O[C@H](CC(=O)NCC3CC3)CC[C@H]21,i
C[C@@H]1CCCCO[C@H](CN(C)C(=O)Nc2ccccc2)[C@@H](C)CN([C@@H](C)CO)C(=O)c2cc(NC(=O)C3CCCCC3)ccc2O1,i
C[C@@H]1CN([C@@H](C)CO)C(=O)c2cc(NS(C)(=O)=O)ccc2O[C@@H](C)CCCCO[C@H]1CN(C)C(=O)c1ccccc1,i

# 2 entries from above, as labelled records.
SMILES: CCCNC(=O)Nc1ccc2c(c1)C(=O)N(C)C[C@@H](OC)[C@@H](C)CN(Cc1cccnc1)[C@H](C)CO2
  FGF22 binding: i
SMILES: COCC(=O)N1[C@@H](C#N)[C@@H](c2ccccc2-c2cccc(OC)c2)[C@@H]1CO
  FGF22 binding: i

# 3 entries from above, arranged by molar mass, highest first:
SMILES,FGF22 binding
CC(C)NC(=O)N(C)C[C@H]1Oc2ncc(C#CCc3ccccc3)cc2C(=O)N([C@H](C)CO)C[C@H]1C,i
C[C@@H]1CN([C@@H](C)CO)C(=O)c2cc(-c3ccccc3F)cnc2O[C@@H]1CN(C)C(=O)CN(C)C,i
CC(=O)N(C)C[C@H]1Oc2ncc(C#Cc3cccc(F)c3)cc2C(=O)N([C@@H](C)CO)C[C@@H]1C,i

# More records
SMILES,FGF22 binding
COCc1cn(CC[C@@H]2CC[C@@H](NC(=O)Nc3ccc(Cl)cc3)[C@@H](CO)O2)nn1,i
COc1ccc(C#Cc2cnc3c(c2)C(=O)N([C@H](C)CO)C[C@@H](C)[C@@H](CN(C)C)O3)cc1,i
COCC#Cc1ccc2c(c1)O[C@H](CN(C)C(=O)CC1CC1)[C@H](C)CN([C@@H](C)CO)S2(=O)=O,i
O=C1Cn2nnc(-c3ccccc3)c2C2c3cc(Br)ccc3CCN12 (stereo not drawn),i
C[C@H](CO)N1C[C@H](C)[C@H](CN(C)C(=O)c2ccccn2)Oc2ncc(-c3cccc(C#N)c3)cc2C1=O,i
CCCNC(=O)C[C@@H]1C[C@@H]2c3cc(NC(=O)CC4CC4)ccc3O[C@@H]2[C@H](CO)O1,i
C[C@H](CO)N1C[C@H](C)[C@@H](CN(C)Cc2ccc(C(=O)O)cc2)Oc2ccc(NC(=O)Nc3ccccc3)cc2C1=O,i
CCCC(=O)Nc1ccc2c(c1)OC[C@H](C)N(Cc1ccccn1)C[C@@H](C)[C@@H](OC)CN(C)C2=O,i
C[C@H](CO)N1C[C@H](C)[C@H](CN(C)CC2CC2)Oc2c(NC(=O)C3CCOCC3)cccc2C1=O,i
CCCNC(=O)Nc1ccc2c(c1)C(=O)N(C)[C@@H]1CC[C@H](CC(=O)NCCCN(C)C)O[C@@H]1CO2,i
O=C(C[C@@H]1CC[C@@H](NC(=O)c2ccc3c(c2)OCO3)[C@H](CO)O1)NCc1ccc(F)cc1,i
COc1ccc(S(=O)(=O)Nc2ccc3c(c2)CC(=O)N([C@H](C)CO)C[C@@H](C)[C@H](CN(C)C(=O)Nc2ccc(C(F)(F)F)cc2)O3)cc1,i
CC(=O)N(C)C[C@H]1Oc2cc(C#C[C@@H](C)O)ccc2S(=O)(=O)N([C@H](C)CO)C[C@H]1C,i
C[C@H]1CN([C@@H](C)CO)C(=O)c2cc(-c3ccccc3F)cnc2O[C@H]1CN(C)C(=O)C1CC1,i
C[C@@H]1CN([C@@H](C)CO)C(=O)Cc2cc(N(C)C)ccc2O[C@H]1CN(C)Cc1ccc2c(c1)OCO2,i
O=C(CN1CCOCC1)N[C@@H]1CC[C@@H](CCNC(=O)C2CCCC2)O[C@@H]1CO,i
C[C@H](CO)N1C[C@H](C)[C@@H](CN(C)S(=O)(=O)c2ccc(Cl)cc2)Oc2ccc(NC(=O)C3CC3)cc2CC1=O,i
C[C@@H]1CN([C@H](C)CO)C(=O)Cc2cc(NC(=O)CCCCCC(=O)Nc3ccccc3N)ccc2O[C@@H]1CN(C)C(=O)Nc1ccc2c(c1)OCO2,i
O=C(C[C@H]1CC[C@@H]2[C@H](COC[C@@H](O)CN2C(=O)Nc2ccc(Cl)cc2)O1)NCC1CC1,i
C[C@H](CO)N1C[C@H](C)[C@@H](CN(C)Cc2ccc(Cl)c(Cl)c2)Oc2ccc(NC(=O)Cc3cn(C)c4ccccc34)cc2C1=O,i
CC=Cc1ccc2n(c1=O)C[C@H]1[C@H](CO)[C@@H](C(=O)NCCC)[C@@H]2N1C(=O)C1CCCC1 (mixture of isomers),i
C[C@@H]1CN([C@H](C)CO)S(=O)(=O)c2ccc(C#CC(C)(C)O)cc2O[C@@H]1CN(C)CC1CC1,i
CC(C)NC(=O)Nc1ccc2c(c1)C(=O)N([C@@H](C)CO)C[C@@H](C)[C@H](CN(C)Cc1ccc(C(=O)Nc3ccccc3N)cc1)O2,i
C[C@@H]1CN([C@@H](C)CO)S(=O)(=O)c2ccc(-c3ccccc3F)cc2O[C@@H]1CN(C)Cc1cccnc1,i
Cc1noc(C)c1S(=O)(=O)Nc1ccc2c(c1)C(=O)N([C@H](C)CO)C[C@@H](C)[C@@H](CN(C)Cc1ccc(C(=O)O)cc1)OCCCC[C@H](C)O2,+
COC(=O)C[C@@H]1CC[C@H]2[C@@H](COc3ccc(NC(=O)C4CC4)cc3C(=O)N2C)O1,i
Cc1noc(C)c1S(=O)(=O)Nc1ccc2c(c1)C(=O)N([C@H](C)CO)C[C@@H](C)[C@H](CN(C)Cc1ccc(Cl)c(Cl)c1)O2,i
C[C@@H]1CN([C@H](C)CO)C(=O)c2cccc(NS(=O)(=O)c3ccccc3)c2O[C@H]1CN(C)Cc1ccc(C(=O)Nc2ccccc2N)cc1,i
C[C@H](CO)N1C[C@H](C)[C@@H](CN(C)CC2CCCCC2)OCCCC[C@H](C)Oc2ccc(NC(=O)Cc3ccccc3)cc2C1=O,i
CCS(=O)(=O)N1CCCCN2[C@H](C1)[C@@H](c1ccc(C#CC(C)(C)O)cc1)[C@@H]2CO,i
COc1ccc(NC(=O)N(C)C[C@@H]2OCCCC[C@H](C)Oc3ccc(NS(=O)(=O)c4ccc(F)cc4)cc3C(=O)N([C@H](C)CO)C[C@H]2C)cc1,i
CC(C)C#Cc1ccc2c(c1)O[C@@H](CN(C)Cc1ccccc1)[C@@H](C)CN([C@@H](C)CO)S2(=O)=O,i
C[C@@H](NC(=O)C[C@H]1C[C@@H]2c3cc(NC(=O)C4CCOCC4)ccc3O[C@@H]2[C@H](CO)O1)c1ccccc1,i
O=C(CN1CCOCC1)NCC[C@@H]1CC[C@@H](NC(=O)Nc2ccc(Cl)cc2)[C@H](CO)O1,i
COc1ccc(S(=O)(=O)N(C)C[C@H]2OCCCC[C@@H](C)Oc3ccc(NC(=O)Nc4ccccc4)cc3C(=O)N([C@@H](C)CO)C[C@@H]2C)cc1,i
Cc1ccc(S(=O)(=O)Nc2ccc3c(c2)C(=O)N([C@H](C)CO)C[C@@H](C)[C@@H](CN(C)C(=O)NC(C)C)OCCCC[C@@H](C)O3)cc1,i
C[C@@H]1CN([C@H](C)CO)S(=O)(=O)c2ccc(C#CC3(O)CCCC3)cc2O[C@H]1CN(C)C(=O)c1cccnc1,i
C[C@@H]1CN([C@@H](C)CO)S(=O)(=O)c2ccc(Br)cc2O[C@@H]1CN(C)Cc1ccc(C(=O)O)cc1,i
C/C=C/c1ccc2c(c1)O[C@@H](CN(C)S(=O)(=O)c1ccc(C)cc1)[C@@H](C)CN([C@H](C)CO)S2(=O)=O,i
CCCC#Cc1ccc2c(c1)O[C@H](CN(C)C(=O)COC)[C@@H](C)CN([C@@H](C)CO)S2(=O)=O,i
C[C@@H]1CN([C@H](C)CO)C(=O)c2cc(Br)cnc2O[C@@H]1CN(C)Cc1ccccn1,i
C[C@H](CO)N1C[C@H](C)[C@@H](CN(C)Cc2ccccc2)Oc2ccc(NC(=O)CCCN(C)C)cc2C1=O,i
COc1ccc2c3c(n(C)c2c1)[C@@H](CO)N(C(=O)CC1CC1)CC31CCN(C(=O)NC(C)C)CC1,i
O=C(NCC[C@@H]1CC[C@H](NS(=O)(=O)c2cccc(F)c2)[C@@H](CO)O1)Nc1cc(F)ccc1F,i
CCCNC(=O)Nc1ccc2c(c1)OC[C@H](C)N(C)C[C@@H](C)[C@H](OC)CN(C)C2=O,i

# Quoted at random: four records from the list.
SMILES,FGF22 binding
C[C@H](CO)N1C[C@H](C)[C@@H](CN(C)CC2CCOCC2)Oc2ncc(C#Cc3ccncc3)cc2C1=O,i
C[C@H]1CN([C@@H](C)CO)C(=O)c2cc(-c3ccccc3F)cnc2O[C@H]1CN(C)C(=O)C1CC1,i
C[C@@H]1CN([C@H](C)CO)C(=O)c2cc(NC(=O)CCC(F)(F)F)ccc2O[C@@H]1CN(C)C(=O)Nc1cccc2ccccc12,i
CO[C@H]1CN(C)C(=O)c2cc(NC(=O)NC(C)C)ccc2OC[C@H](C)N(Cc2ccccc2)C[C@@H]1C,i

# Carrying on:
SMILES,FGF22 binding
CCS(=O)(=O)N[C@H]1CC[C@H](CC(=O)NCc2ccc(Cl)cc2)O[C@H]1CO,i
O=C(Nc1ccccc1)N[C@@H]1CC[C@@H](CCNC(=O)c2ccccc2F)O[C@@H]1CO,i
CN1c2ccc(Br)cc2[C@@H]2[C@@H](CCN2S(=O)(=O)c2ccccc2F)[C@H]1CO,i
CO[C@H]1CN(C)C(=O)c2cc(NS(=O)(=O)c3ccc(C)cc3)ccc2OC[C@@H](C)N(C)C[C@@H]1C,i
CCCNC(=O)N1[C@@H]2Cn3c(ccc(-c4ccccc4OC)c3=O)[C@H]1[C@@H](C(=O)N(C)C)[C@@H]2CO,i
N#C[C@@H]1N[C@H](CO)[C@@H]1c1ccc(-c2ccccc2F)cc1,i
Cn1cnc(S(=O)(=O)N[C@H]2C=C[C@H](CC(=O)N3CCN(c4ccccc4)CC3)O[C@@H]2CO)c1,i
CC(C)C#Cc1ccc2c(c1)O[C@H](CN(C)Cc1ccncc1)[C@H](C)CN([C@@H](C)CO)S2(=O)=O,i
Cc1noc(C)c1NC(=O)NCC[C@@H]1CC[C@@H](NC(=O)Nc2cccc(Cl)c2)[C@H](CO)O1,i
COc1cccc(S(=O)(=O)N[C@@H]2CC[C@H](CC(=O)NC3CCC3)O[C@@H]2CO)c1,i

# Bioassay records from PubChem.
